Screening data from PubChem BioAssay.
CapD inh: Bacillus anthracis CapD inhibitors, primary screen, biochemical, fluorescence intensity. CapD gamma-glutamyltranspeptidase (Bacillus anthracis Ames Ancestor). purified CapD enzyme, fluorescence intensity read-out; active compounds read low; some hits fall short of the stated cut. z-score (no concentration beside the values). actives 0.23% (n = 140,000). AID 492967, 2010;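 active means z-score under -4 in either of two replicates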;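 further: stock transfer was 100 nL into about 40 µL; score is relative to mean and spread of the plate; one replicate is shown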
AID504770: growth inhibition of E. coli YBA685, primary screen, V. cholerae RctB inhibitors. E. coli YBA685 rctB-dependent plasmid, OD600 growth, 3 h; active compounds read low. z-score (concentration not given with the values). actives 0.27% (n = 130,000). AID 504770, 2011;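 active means z-score under -2 on both plates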;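 further: wells of about 30 µL received 100 nL stock; score is relative to mean and SD of the test wells; the first replicate is given; strong numbers were not always called active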
Numbers without * were called inactive; · = not tested or not shown; & = joins results of further samples.

Results follow in this order: CapD inh | AID504770
- Cc1ccc(NC(=O)COc2ncnc3c2cnn3-c2ccccc2)cc1
→ · | -0.7
- COc1ccccc1CNC(=O)c1ccccc1OCC(=O)N(C1CC1)C1CCN(C(C)=O)CC1
→ -0.24 | ·
- CCCCn1c(NC(=O)C2CCCCC2)nc2ccccc21
→ -0.51 | ·
- O=C(O)c1cccc(N=Nc2sc3ccccc3c2O)c1
→ -2.2 | 0.9
- Cc1ccc(CNC(=O)c2c[nH]c3ccc(S(=O)(=O)N4CCC(C)CC4)cc3c2=O)cc1
→ 0.055 | -0.45
- Cc1noc(C)c1COC(=O)c1ccc(S(=O)(=O)C(F)F)cc1
→ · | -0.05
- O=c1[nH]c(=S)[nH]c2[nH]c(=S)[nH]c12
→ · | 0.25
- Cc1ccc(S(=O)(=O)C(CC(=O)c2ccc(F)cc2)c2ccco2)cc1 (stereo unspecified)
→ -0.08 | 0.55
- N=C1/C(=C/c2cccs2)C(=O)N=C2SC=C(c3ccccc3)N12
→ -1.2 | 2.5
- FC(F)(F)Oc1ccc(C2c3ccsc3CCN2Cc2ccccn2)cc1 (stereo unspecified)
→ 0.31 | 0.2
- CCC(C)(C)c1ccc(S(=O)(=O)NCc2cc(OC)ccc2OC)cc1
→ 0.33 | ·
- CC(C)NC(=O)CCn1c(=O)oc2ccccc21
→ 0.47 | -0.8
- CCc1nnc2c3c4c(sc3nc(C)n12)CCC4
→ · | 0
- CCSc1nc2ccc(NC(=O)CSc3nc4ccccc4[nH]3)cc2s1
→ 0.69 | ·
- O=C(C1CCCCC1)N1CCN(S(=O)(=O)c2ccc(Cl)cc2Cl)CC1
→ -0.21 | 0.85

An excerpt from above in order of formula weight, falling:
Results follow in this order: CapD inh | AID504770
- COc1ccccc1CNC(=O)c1ccccc1OCC(=O)N(C1CC1)C1CCN(C(C)=O)CC1
→ -0.24 | ·
- FC(F)(F)Oc1ccc(C2c3ccsc3CCN2Cc2ccccn2)cc1 (stereo unspecified)
→ 0.31 | 0.2
- Cc1noc(C)c1COC(=O)c1ccc(S(=O)(=O)C(F)F)cc1
→ · | -0.05
- N=C1/C(=C/c2cccs2)C(=O)N=C2SC=C(c3ccccc3)N12
→ -1.2 | 2.5
- CCCCn1c(NC(=O)C2CCCCC2)nc2ccccc21
→ -0.51 | ·
- O=C(O)c1cccc(N=Nc2sc3ccccc3c2O)c1
→ -2.2 | 0.9
- CC(C)NC(=O)CCn1c(=O)oc2ccccc21
→ 0.47 | -0.8

Structures from the list above that contain fluorine, in the order listed:
Results follow in this order: CapD inh | AID504770
- Cc1noc(C)c1COC(=O)c1ccc(S(=O)(=O)C(F)F)cc1
→ · | -0.05
- Cc1ccc(S(=O)(=O)C(CC(=O)c2ccc(F)cc2)c2ccco2)cc1 (stereo unspecified)
→ -0.08 | 0.55
- FC(F)(F)Oc1ccc(C2c3ccsc3CCN2Cc2ccccn2)cc1 (stereo unspecified)
→ 0.31 | 0.2

(list continues)
Results follow in this order: CapD inh | AID504770
- COc1cc(CCC(=O)NCC(c2ccc(F)cc2)N2CCOCC2)cc(OC)c1OC (stereo unspecified)
→ · | -0.3
- CCOc1ccc(C2C(N3C(=O)c4ccc([N+](=O)[O-])cc4C3=O)C(=O)N2c2cc(Cl)ccc2C)cc1 (stereo unspecified)
→ -0.49 | ·
- Cc1ccc(OCC(=O)Nc2ccc(-c3nn4c(C)nnc4s3)cc2)cc1
→ 0.025 | -0.9
- N#Cc1c(SCC(=O)NCCc2ccccc2)sc2c(=O)[nH]c(=O)[nH]c12
→ · | 0.05
- COc1ccc2cc(CCNC(=O)c3ccccc3)c(=O)[nH]c2c1
→ -0.48 | 0.6
- Cc1ccc2c(c1)sc1ncc(S(=O)(=O)c3ccc(F)c(Cl)c3)c(=O)n12
→ 59 | -0.65
- CCCNC(=O)c1ccc(CS(=O)Cc2cccc(Cl)c2)o1 (stereo unspecified)
→ -1.1 | -0.35
- Cc1nn(-c2ccccc2)c2sc(C(N)=O)cc12
→ 14 | -0.35
- CC1CCCC(NC(=O)Cn2c(=O)c3ccccc3n(C)c2=O)C1C (stereo unspecified)
→ 0.86 | ·
- c1ccc(-c2csc3ncnc(N4CCC(N5CCCCCC5)CC4)c23)cc1
→ 0.16 | ·
- O=C(O)c1ccccc1NCCc1ccc(F)cc1
→ 98 | -0.9
- Cc1ccc(NC(=O)CC(NCCN2CCOCC2)C(=O)O)cc1Cl (stereo unspecified)
→ 0.94 | -0.1
- CCOC(=O)c1c(CS(=O)Cc2ccc(Cl)cc2)oc2c(F)c(F)c(F)c(F)c12 (stereo unspecified)
→ 0.14 | -0.3
- CN(CC1CCCO1)C1CCN(C(=S)Nc2cc(F)cc(F)c2)CC1 (stereo unspecified)
→ -0.3 | -0.15
- CCn1c(-c2ccc(N)cc2)nc2ccccc21
→ 63 | 1.3

The results go on:
Results follow in this order: CapD inh | AID504770
- COC(=O)C1=C(C(=O)OC)SC(=C2C(=S)C(C)(C)N(C(=O)C(C)C)c3cc(C)ccc32)S1
→ -0.12 | ·
- C/C(CCS(=O)(=O)c1ccccc1)=N\OCc1ccc([N+](=O)[O-])cc1
→ 0.045 | ·
- Cc1cc(C)n2c(Br)c(CN3CC(C)CC(C)C3)nc2n1 (stereo unspecified)
→ · | 2.1
- CC1CCC(C(C)C)C(NC(=O)c2cccc3ccccc23)C1 (stereo unspecified)
→ -0.14 | -0.15
- CCOC(=O)C1=C(N)Oc2ccc3ccccc3c2C1c1ccc([N+](=O)[O-])cc1 (stereo unspecified)
→ -0.36 | ·
- COc1ccc(C2=NN(c3nc(C)c(C(C)=O)s3)C(c3ccco3)C2)cc1 (stereo unspecified)
→ 5 | ·
- COc1ccc(OCC(O)CNC(=O)C2CCC2)cc1 (stereo unspecified)
→ -0.66 | -0.95
- Clc1ccc(-c2noc(C3CCc4ccccc4O3)n2)cc1 (stereo unspecified)
→ -1.2 | -0.9
- CCOC(=O)c1cc(-c2ccccc2)n(CC(=O)N2CCCCCC2)c1C
→ 0.97 | 0.6
- CN1CCN(S(=O)C23CC4CC(CC(C4)C2)C3)CC1 (stereo unspecified)
→ 0.47 | -0.7
- COc1ccccc1C1CCN(C(=O)c2ccc(C(C)(C)C)cc2)CC1
→ 0.3 | ·
- O=c1[nH]c2ccc3nsnc3c2[nH]c1=O
→ -0.79 | 1.2
- CC1(C)C=C(C(=O)N2CCCCC2)C(C)(C)N1
→ -0.38 | -1
- CCN(CC)CCOCCOC(=O)N1CCC(C(O)(c2ccccc2)c2ccccc2)CC1
→ 0.72 | ·
- O=C(O)C(Cc1ccc(F)cc1)c1ccccc1 (stereo unspecified)
→ -0.18 | -0.75

Next entries
Results follow in this order: CapD inh | AID504770
- Cc1ccc2c(nc3s/c(=C/c4cc([N+](=O)[O-])c(N5CCOCC5)cc4N4CCOCC4)c(=O)n32)c1C
→ 0.14 | ·
- Cc1ccc(Cl)cc1N/C=C/C(=O)C(C)(C)C
→ -1.8 | -0.25
- COc1cc(CN(CC2CCCO2)C(=O)c2ccco2)cc(OC)c1OC (stereo unspecified)
→ -0.03 | 1.1
- CC(C)C(=O)NC(c1ccc(Cl)cc1Cl)c1ccc2cccnc2c1O (stereo unspecified)
→ 1.3 | 2.9
- CC(C)c1cc(C(C)C)c(S(=O)(=O)n2ccnc2)c(C(C)C)c1
→ 0.54 | -1.1
- C=CCn1c(=S)[nH]c2ccccc2c1=O
→ -0.46 | 0.95&0.85
- O=S(=O)(NCC1CCCO1)c1ccc2ccccc2c1 (stereo unspecified)
→ 1.7 | 0.3
- CC(C)OC(=O)CSc1nc2cc3c(cc2cc1C#N)OCO3
→ · | -0.2
- COc1ccc2cc3cc(C(=O)NCCCN4CCCCCC4)sc3nc2c1
→ 0.47 | 0.75
- CCC(C)n1c(NC(=O)c2ccccc2)c(C#N)c2nc3ccccc3nc21 (stereo unspecified)
→ · | 0.3
- CC(NC(=O)CSc1ncccn1)c1ccccc1 (stereo unspecified)
→ · | -0.75
- O=S(=O)(c1cccs1)n1ccc(-c2ccc3c(c2)CCO3)n1
→ -0.14 | -0.65
- NNC(=O)Cc1cc(Br)sc1Br
→ 8.9 | -0.5
- Cc1nc(-c2ccc(Cl)cc2)sc1-c1ccnc(N)n1
→ 49 | 0.2
- N#CC(C#N)=C1C(C#N)=C(N)OC1c1ccccc1 (stereo unspecified)
→ -3.9 | -1.1

Following part
Results follow in this order: CapD inh | AID504770
- O=C(CCCN1C(=O)/C(=C\c2ccco2)SC1=S)Nc1ccc2ccccc2c1
→ 0.64 | 0.2
- C=CCn1c(SCC(=O)Nc2ccc3[nH]c(=O)[nH]c3c2)nnc1-c1ccccc1F
→ · | 0.7
- O=C(Oc1cccc(F)c1F)c1ccc2nonc2c1
→ 0.14 | 0.1
- O=S(=O)(NCCC1CC1(Cl)Cl)c1ccccc1 (stereo unspecified)
→ -0.65 | -0.45
- O=C(/C=C/c1ccc(Cl)cc1Cl)NCC1CCCO1 (stereo unspecified)
→ 0.03 | -0.6
- COc1ccc(-c2noc(CN(C)C(=O)c3ccccc3)n2)cc1
→ 0.23 | -0.1
- O=C1CCCN1CN(C(=O)c1ccccc1)c1cccc(Cl)c1
→ · | -0.25
- CCOC(=O)C1C(c2ccc(C(F)(F)F)cc2)C(C(=O)OCC)C(O)(C(F)(F)F)NC1(O)C(F)(F)F (stereo unspecified)
→ -0.53 | ·
- CCOC(=O)C1C(=O)OC(C)(C)C1C(=O)OCC (stereo unspecified)
→ 0.54 | -0.25
- CCC1CCCCN1C(=S)NC1CCCCC1 (stereo unspecified)
→ · | 0.75
- O=C(/C=C/c1cccs1)Nc1scc(-c2ccccc2)c1C(=O)O
→ -0.025 | -0.4
- COc1cc(C2NC(=O)NC3=C2C(=O)N(Cc2ccc(F)cc2)C3)cc(OC)c1OC (stereo unspecified)
→ · | -0.65
- NC(=O)c1ccc(-c2ncc3c(n2)-c2cc(F)ccc2OC3)cc1
→ 10 | -0.1
- c1ccc(-n2c3c(c4ccccc42)CCC3)cc1
→ 0.61 | -0.6
- COc1cc(/C=N/NC(=O)CC2(C)SCCS2)ccc1O
→ · | 0.1

(listing goes on)
Results follow in this order: CapD inh | AID504770
- Cc1c(CSc2nnc(-c3ccco3)n2-c2ccccc2)cccc1-c1ccccc1
→ 6.2 | ·
- O=C(/C=C(\O)c1ccccc1)C(=O)Nc1ccccn1
→ 2.1 | -0.25
- Cc1ccc2c(c1)c(C1=NC(=S)NC1=O)c(O)n2C
→ 0.05 | 0.85
- COC(=O)CNC(=O)c1nc(C)oc1C(F)(F)F
→ -0.41 | ·
- CCN(CC)c1ccc(N)c(C)c1
→ -1.4 | -0.1
- CC(C)C(=O)N(Cc1ccccn1)c1nc2ccccc2s1
→ · | -0.35
- CC1=C(C(=O)Nc2ccccc2)C(c2cccs2)C(C#N)=C(SCC(=O)Nc2ccc(F)cc2)N1 (stereo unspecified)
→ 19 | 0.2
- O=C(NC(=O)c1c(Cl)cccc1Cl)Nc1cc(C(F)(F)F)cc(C(F)(F)F)c1
→ 0.12 | ·
- CCOC(=O)Cc1nnc(NC(=O)C(CC)Sc2nc(C)cc(C)n2)s1 (stereo unspecified)
→ -0.15 | 1.5
- CCc1ccc(-n2[nH]nnc2=S)cc1
→ 0.23 | 1.1
- COc1ccc(C2CC(c3c(-c4ccccc4)c4cc(Br)ccc4[nH]c3=O)=NN2C(=O)CCC(=O)O)cc1 (stereo unspecified)
→ 4.3 | ·
- CC(=O)N[C@H]1[C@H](Oc2nc3cc(C)ccc3o2)O[C@H](CO)[C@@H](O)[C@@H]1O
→ 2.5 | -1.6
- CC(=O)Nc1nnc(SCc2ccccc2)s1
→ · | 0
- Cc1ccccc1NC(=O)c1cnn2ccccc12
→ -0.22 | -0.9
- CCOC(=O)C1=C(CC)Nc2ccccc2N=C1NC(=O)Nc1ccccc1OC
→ · | 0.5

Going on with the list.
Results follow in this order: CapD inh | AID504770
- Cc1cccc(C(=O)NCC(=O)N2CCN(S(=O)(=O)/C=C/c3ccccc3)CC2)c1
→ · | -0.55
- O=C(CSc1nnnn1-c1ccccc1)c1ccccc1
→ -1.1 | 0.75
- N#Cc1nc(Cc2ccccc2)oc1N1CCC(Cc2ccccc2)CC1
→ -0.59 | -0.65
- N#Cc1cccc(NC(=O)C23CC4CC(CC(Cl)(C4)C2)C3)c1
→ -1.3 | -0.55
- Cn1c(=NC(=O)CSCC(=O)N2CCN(c3ccccc3)CC2)sc2ccccc21
→ · | 0.7
- CCOC(=O)c1ccc(NC(=O)n2ncc3cc(Cl)ccc32)cc1
→ 0.43 | 1.4
- Cc1noc(C)c1CSCC(=O)Nc1c2ccccc2n2c(C)nc3ccccc3c12
→ · | 2.5
- CCS(=O)(=O)CCSc1nc(C)cc(C)n1
→ -0.69 | 1.9
- N#CCCS(=O)(=O)c1ccc(Cl)cc1
→ 0.02 | -0.15
- O=C(c1ccc2nc[nH]c2c1)N1CCN(C/C=C/c2ccccc2)CC1
→ · | -0.75
- COc1cc(NC(=O)c2cnn3c2NC(c2ccc(Br)cc2)CC3C(F)(F)F)cc(OC)c1OC (stereo unspecified)
→ 0.18 | ·
- Cc1ccccc1NS(=O)(=O)c1ccc(-n2c(=O)n(C)n(C)c2=O)cc1
→ -0.82 | -1.8
- CSCC[C@H](NC(C)=O)C(=O)O
→ 0.1 | ·
- O=C(Nc1nc(-c2ccccc2)cs1)c1cccc(S(=O)(=O)N2CCCC2)c1
→ 0.51 | 0.85
- Cn1c(=O)c2nc(-c3nnc4n3CCCCC4)c(N)nc2n(C)c1=O
→ 79 | 0.1

(further entries)
Results follow in this order: CapD inh | AID504770
- COC(=O)C1=C(C(=O)OC)SC(=C2C(=S)C(C)(C)N(C(=O)c3ccc(F)cc3)c3c(OC)cccc32)S1
→ 1.5 | ·
- C#CC(/C=C/C)OC(=O)c1ccccc1C(=O)O (stereo unspecified)
→ 0.92 | 0.65
- Cn1nc(-c2ccccc2)c(CO)c1Sc1c(Cl)cccc1Cl
→ -0.33 | ·
- CCN1CCN(Cc2ccc(NC(=O)CCc3nc(C4=CCN(C)CC4)no3)cc2)CC1
→ 0.8 | -0.5
- CC(C)OC(=O)c1cccc(C(=O)O)n1
→ -0.025 | -0.35
